Autofluor counter: counter-screen for toxin protease inhibitors: compound fluorescence; AID 624483; fluorescence intensity (test concentration not listed); compound autofluorescence counterscreen, microsphere flow cytometry; stronger effect = higher value; 360,000 compounds, 3.1% hits;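 active = at least 3 SD above the mean of all compounds, about 16000 in these data; inconclusive = too few beads counted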;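 note: 100 nL of 1 mM stock went into each well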
BJeLR viability: kills HRASV12-expressing BJeLR cells; BJeLR (HRASV12) viability, CellTiter-Glo ATP luminescence, 48 h; reference of the scale not given here; inhibition, % (concentration not given with the values); 300,000 compounds, 0.17% hits;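 active = replicate mean above 50%; inconclusive = above 50% but judged a plate artefact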;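 note: 50 nL library stock added to about 25 µL; numbers are from one replicate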
Mtb hypoxia inh: Mtb hypoxia fluorescent reporter inhibition; M. tuberculosis hypoxia-regulated fluorescent reporter, fluorescence; fluorescence inhibition, % (test concentration not listed); 300,000 compounds, 0.1% hits;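 active = 35 to 45% if threefold the growth effect, above 45% if 1.5-fold the growth effect; inactive = the rest, general growth blockers included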;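 note: wells of about 50 µL received 100 nL stock; 0% = vehicle wells and 100% = reference inhibitor wells; whole bacteria with a GFP reporter of the hypoxia response; strong numbers were not always called active; many hits fall short of the cut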
Sa ugtP lethal: growth inhibition of S. aureus ugtP deletion strain | growth inhibition, % (test concentration not listed) | AID 1259309 | S. aureus RN4220 ugtP deletion, OD600 growth, 16 h; some inactives read as strong as hits | 330,000 compounds, 0.54% hits;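 active = z-score under -3 and OD600 up to 0.15 on both plates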;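 note: plate controls were untreated wells for no effect and antibiotic for full effect; wells of about 80 µL received 100 nL stock; the first replicate is given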
PrP UTR inh: suppresses PrP 5' UTR mRNA reporter expression; inhibition, % (no concentration beside the values); 340,000 compounds, 0.35% hits; cell-based PrP 5' UTR mRNA reporter, plate reader; AID 488862;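 active = every replicate at 50% or more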;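 note: 0 = median of the neutral control wells; tested in H4 reporter cells; numbers are from one replicate; inactives centre near -14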
RN4220 kill: S. aureus RN4220 growth inhibition; OD600, 16 h; inhibition, % (test concentration not listed); 330,000 compounds, 0.33% hits; AID 1259311;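 active = z-score of -3 or lower and OD600 up to 0.18 on both plates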;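 note: plate controls were untreated cells for no effect and reference antibiotic for full effect; stock transfer was 100 nL into about 80 µL; one replicate is shown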
Mtb hypoxia inh growth: also measured in Mtb hypoxia inh; calls as there; growth inhibition, %; measured here: M. tuberculosis growth (absorbance);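 0% = vehicle and 100% = reference antibiotic; read after six days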
* hit, by the source's call; ? = inconclusive; · = no result given.

SMILES | Autofluor counter | BJeLR viability | Mtb hypoxia inh | Mtb hypoxia inh growth | Sa ugtP lethal | PrP UTR inh | RN4220 kill
CCn1c(C)nc2cc(C(=O)NN=Cc3cccc(O)c3O)ccc21 | · | · | 10 | -6 | 6 | · | 12
C/C(N)=C(/C#N)C(=O)CSc1nnc(Nc2ccccc2)s1 | 1935 | 1 | 2 | 12 | -16 | -32 | -0.3
Cn1nccc1NC(=O)Nc1ccccc1 | 3058 | -7 | 1 | 0 | 7 | -9 | 1.6
CC1CCN(C(=O)c2[nH]cnc2C(=O)N2CCN(c3ccccc3)CC2)CC1 | 3554 | · | 0 | 3 | -6 | -17 | 5.3
CC(C)CN1CCN(Cc2cccn2-c2cccnc2)CC1CCO (stereo unspecified) | 3872 | · | -6 | -5 | 7 | -15 | 5.8
Cc1cc(Cl)ccc1NC(=O)CN1C(=O)NC2(CCCc3ccccc32)C1=O (stereo unspecified) | 6006 | -2 | -1 | 0 | 0 | -6 | -3.5
O=C(CCC(=O)Nc1ccccc1)N/N=C/c1cccnc1 | 6297 | -3 | · | · | · | -10 | ·
Cc1nnc(NN)n(N)c1=O | 5620 | -7 | 6 | 13 | -4 | · | 2.1
CC(C)c1ccc(-c2csc3ncnc(N4CCN(C)CC4)c23)cc1 | 3593 | 4 | 16 | 7 | 1 | -14 | 2.9
Cc1[nH]c(=O)c(S(=O)(=O)c2ccccc2)c(C)c1Cl | 3028 | 4 | -3 | -7 | 6 | -18 | 2.2
COc1ccc(Cl)cc1NC(=O)N1CCN(c2ccccc2OC)CC1 | 4412 | -4 | -9 | 9 | 0 | -17 | 4.0
CCOc1ccc2c(c1)sc(N)[n+]2Cc1cc(C)cc2cccnc12 | 10316 | 23 | 21 | 29 | -17 | -30 | 5.2
Cn1c(SCC(=O)Nc2ccccc2)nnc1C(F)(F)F | 4840 | -5 | 9 | 7 | 11 | -28 | 2.8
CC(=O)NCC(=O)NNC1CC(=O)N(c2cccc(Cl)c2)C1=O (stereo unspecified) | ? | -9 | 16 | 9 | 0 | -4 | 0.6
CCOc1ccc2[nH]cc(C(=O)NCCc3ccccc3)c(=O)c2c1 | 3088 | 2 | -7 | -4 | -1 | -15 | 5.9
O=C(NCC1CCCO1)c1ccccc1OCc1ccc(Cl)cc1 (stereo unspecified) | 5408 | -13 | · | · | · | -14 | ·
COc1cc(/C=N/n2nnnc2Nc2ccccc2)cc(OC)c1OC | 7397 | 10 | · | · | · | -36 | ·
COc1ccc(/C=C2\SC(=S)N(CC(=O)OCC(=O)Nc3ccc([N+](=O)[O-])cc3OC)C2=O)cc1 | 3697 | · | -2 | 9 | 0 | -22 | 6.1
Cc1ccc(S(=O)(=O)N2CCN(C(=O)COC(=O)c3nc(Cl)ccc3Cl)CC2)c(C)c1 | 3798 | · | -10 | -4 | 0 | -7 | 5.8
O=C1C=C(c2ccc(Cl)c(C(F)(F)F)c2)CC(c2ccc(F)cc2)C1 (stereo unspecified) | · | · | 1 | 2 | 12 | · | -16
NNC(=S)Nc1c(Br)cc(F)cc1Br | 6333 | -15 | 4 | -6 | 14 | -40 | -3.3
N#C/C(=C\N1CCCCC1)S(=O)(=O)c1ccc(Cl)cc1 | · | 0 | 2 | -6 | 14 | · | 3.2
CC(C)N(C(=O)c1ccc(C(=O)Nc2ccc([N+](=O)[O-])cc2)cc1)C(C)C | 4409 | -9 | -6 | -10 | -5 | -6 | -1.4
COc1ccc2[nH]cc(CCNC(C)=O)c2c1 | 5746 | 5 | 2 | 5 | 4 | 7 | 4.8
COc1ccccc1CCC(=O)NNC(=O)c1cccs1 | 3752 | · | -13 | 1 | -1 | -8 | 0.4
COc1cc(C(C(=O)NC(C)(C)C)N(C(=O)CNC(=O)c2cccs2)c2ccccc2)cc(OC)c1OC (stereo unspecified) | 10478 | -6 | 3 | 2 | -1 | -25 | 5.9
Cc1ccc(N(O)C(=O)OCCNC(=O)Nc2ccccc2)cc1 | 4691 | -1 | · | · | 8 | -22 | 5.2
Cc1cc(=O)oc2c(C)c(OCC(=O)NCCCN3CCOCC3)ccc12 | 4445 | -1 | 0 | -5 | 7 | -4 | 6.0
CCN(CC)S(=O)(=O)c1ccc(C(=O)N2CCN(C3=NS(=O)(=O)c4ccccc43)CC2)cc1 | 4450 | 3 | -1 | -2 | 7 | -18 | 1.4
COCc1c(C(=O)N2CCN(Cc3ccc(C#N)cc3)CC2)oc2ccccc12 | 3435 | -17 | 2 | 2 | 9 | -11 | 3.9
CCCCCCc1nnc(NC(=O)OCC)s1 | 10019 | 6 | 45* | 20* | 2 | -14 | 3.2
O=C(c1ccco1)N1CCN(c2ccc(Cl)cc2)CC1 | 3477 | 5 | 25 | 17 | 8 | -40 | 8.1
CC(=O)Nc1ccccc1C(=O)C(=O)Nc1ccc(F)cc1 | 19649* | -6 | 5 | 3 | 5 | -37 | -0.5
CCn1c(SCC(=O)Nc2nc(C)cs2)nnc1-c1ccco1 | 4652 | -3 | 1 | 3 | 2 | -20 | 16
S=C(NCc1ccccc1Cl)Nc1ccccc1Cl | 4219 | 4 | 0 | -3 | -4 | -16 | -1.9
O=C(c1ccccc1)c1ccncc1 | 8648 | -3 | 11 | 12 | -5 | -14 | 2.1
CC(NC(=O)c1[nH]cnc1C(=O)Nc1ccc(Cl)cc1)C(=O)OC(C)(C)C (stereo unspecified) | · | · | -4 | -8 | -41 | · | -5.7
S=C(NCCc1ccccc1)NN=C1CCCCCC1 | 4002 | 6 | -2 | 4 | 3 | -33 | 5.9
CN1CCN(C(=O)COc2ccc(S(=O)(=O)Nc3ccc(F)cc3)cc2)CC1 | 5304 | -11 | 5 | -9 | 0 | -9 | 1.8
COc1ccc(NCCNc2ccc(OC)cc2)cc1 | 5502 | -4 | 1 | 22 | -3 | -7 | 1.4
Cc1ccc(S(=O)(=O)N(C)C)cc1NC(=O)COC(=O)COc1ccccc1[N+](=O)[O-] | 3331 | 2 | 12 | -2 | 8 | -8 | 7.2
Cc1ccc(NC(=O)c2cccc(NC(=O)/C=C/c3ccco3)c2)cc1C | 2678 | -10 | -6 | -8 | -32 | -84 | -5.1
CCNC(=S)N(CCCO)Cc1cc2cc3c(cc2[nH]c1=O)OCCO3 | 3679 | 2 | 9 | 4 | 4 | -21 | 4.0
COCc1c(C(=O)OCC(=O)NCc2ccco2)oc2ccccc12 | 6152 | · | 7 | 14 | -2 | -7 | -0.9
COC(=O)c1c(NC(=O)c2nc3ccccc3s2)sc2c1CCN(C(C)=O)C2 | 4991 | · | 8 | 7 | 34 | -22 | 11
Cc1ccc(NS(=O)(=O)c2cccc(C(=O)NC3CCN(Cc4ccccc4)CC3)c2)cc1 | · | · | 7 | 7 | 6 | 6 | 4.4
NC(=O)C[C@@H]1NC(=O)CNC(=O)c2cc([N+](=O)[O-])cc(I)c2NCCC(C(N)=O)NC1=O (stereo partly specified) | 2874 | -7 | · | · | · | -23 | ·
CCN(CC)CCN1C2=C(C(=O)CC(C)(C)C2)C(c2cccc(F)c2)C2=C1CC(C)(C)CC2=O | 3171 | -2 | -6 | 5 | -1 | -8 | 0.0

Continued, overlapping the part above by 6 compounds.
SMILES | Autofluor counter | BJeLR viability | Mtb hypoxia inh | Mtb hypoxia inh growth | Sa ugtP lethal | PrP UTR inh | RN4220 kill
CCNC(=S)N(CCCO)Cc1cc2cc3c(cc2[nH]c1=O)OCCO3 | 3679 | 2 | 9 | 4 | 4 | -21 | 4.0
COCc1c(C(=O)OCC(=O)NCc2ccco2)oc2ccccc12 | 6152 | · | 7 | 14 | -2 | -7 | -0.9
COC(=O)c1c(NC(=O)c2nc3ccccc3s2)sc2c1CCN(C(C)=O)C2 | 4991 | · | 8 | 7 | 34 | -22 | 11
Cc1ccc(NS(=O)(=O)c2cccc(C(=O)NC3CCN(Cc4ccccc4)CC3)c2)cc1 | · | · | 7 | 7 | 6 | 6 | 4.4
NC(=O)C[C@@H]1NC(=O)CNC(=O)c2cc([N+](=O)[O-])cc(I)c2NCCC(C(N)=O)NC1=O (stereo partly specified) | 2874 | -7 | · | · | · | -23 | ·
CCN(CC)CCN1C2=C(C(=O)CC(C)(C)C2)C(c2cccc(F)c2)C2=C1CC(C)(C)CC2=O | 3171 | -2 | -6 | 5 | -1 | -8 | 0.0
Cc1nnc(SCc2cc(=O)oc3cc(O)ccc23)n1Cc1ccccc1 | 2144 | -12 | 4 | 16 | 1 | -8 | 0.3
COc1ccc(N(C)S(=O)(=O)c2ccc(C)cc2)c([N+](=O)[O-])c1 | 3377 | 8 | 4 | -10 | 5 | -14 | 3.9
NC(=O)c1ccccc1N/C=C/C(=O)c1ccco1 | 3084 | 1 | 13 | 9 | -9 | -69 | -5.2
Cc1ccc(N2C(=O)C3C(C2=O)N2C(c4cccs4)C4C(=O)N(c5ccc(C)cc5)C(=O)C4N2C3c2cccs2)cc1 (stereo unspecified) | 2219 | -10 | · | · | · | -16 | ·
COc1ccc(OC)c(NC(=O)Cn2cc(C=O)c3ccccc32)c1 | 4417 | -4 | -7 | 3 | 5 | -25 | 8.0
COc1cc2cc(C(c3nnnn3C(C)(C)C)N3CCc4ccccc4C3)c(=O)[nH]c2cc1OC (stereo unspecified) | 6554 | -2 | 1 | 9 | 3 | -14 | 5.1
Cc1ccc(C(=O)N2CCCC(Nc3ccc(C)c(C)c3)C2)c(=O)[nH]1 (stereo unspecified) | 4808 | -15 | 3 | -3 | 4 | -12 | 0.5
Cc1ccc(S(=O)(=O)Oc2ccc(/C=C(/NC(=O)c3ccccc3)C(=O)NCCCC(=O)O)cc2)cc1 | 3222 | 0 | 16 | 3 | 6 | -24 | 0.7
O=C(CSc1ccc2nnc(-c3ccccn3)n2n1)N1CCN(c2ccccc2)CC1 | 5828 | -8 | 0 | 6 | 0 | 0 | -0.5
Cc1ccc(/C(N)=N/OC(=O)C(C)c2ccc([N+](=O)[O-])cc2)cc1 (stereo unspecified) | 3992 | -5 | · | · | · | -5 | ·
CCOc1ccc(N2Cc3ncccc3C2=O)cc1 | 9767 | 5 | 1 | 9 | 0 | -41 | 5.9
Cc1cc(-c2ccc(C)c(S(=O)(=O)N3CCN(c4ccccn4)CC3)c2)on1 | 5698 | 1 | 12 | 0 | 11 | -16 | 2.1
Cn1cnc([N+](=O)[O-])c1Sc1ncn[nH]1 | 3726 | 3 | 22 | 5 | 6 | -2 | 2.1
O=C(CCN1CCCCO1)N1CCCC(Nc2cccc(F)c2)C1 (stereo unspecified) | 5034 | -9 | · | · | · | -11 | ·
Cn1cccc1C(=O)NC(=O)COC(=O)Cc1coc2ccc3ccccc3c12 | 3401 | 9 | 3 | 10 | -2 | -10 | 3.5
CCOC(=O)NC(Cc1c[nH]c2ccccc12)C(=O)NCCc1ccc(S(N)(=O)=O)cc1 (stereo unspecified) | 3640 | 1 | -3 | 4 | 3 | -12 | 0.6
CN1C(=O)C2(c3ccccc31)c1c(oc3ccccc3c1=O)C(=O)N2CCO (stereo unspecified) | 4292 | -4 | 1 | 10 | 8 | 3 | 2.7
CCOc1cccc(N2C(=O)CC(NCc3ccc(S(N)(=O)=O)cc3)C2=O)c1 (stereo unspecified) | 2872 | 14 | 6 | 14 | 1 | 0 | -6.1
Cc1onc(C(=O)Nc2sc3c(c2C(N)=O)CCCC3)c1[N+](=O)[O-] | 4427 | 13 | 0 | -4 | -10 | -11 | 11
COC(=O)c1ccccc1C(=O)N1CCCC(C(=O)c2ccc(OC)c(OC)c2)C1 (stereo unspecified) | 6959 | -8 | 0 | 10 | 6 | -28 | 2.0
CCOC(=O)c1cc(-c2ccccc2)sc1NC(=O)CC | 2262 | -10 | 4 | 9 | -17 | 8 | 8.4
C[C@@H]1CN([C@H](C)CO)C(=O)c2cc(NC(=O)Nc3ccc4c(c3)OCO4)ccc2O[C@H]1CN(C)Cc1ccncc1 | 3023 | · | -1 | -11 | 9 | 2 | 1.6
c1ccc(-c2noc(C34CC5CC(CC(C5)C3)C4)n2)cc1 | 2904 | -5 | 7 | 9 | 11 | -20 | -3.4
CSc1ccccc1OCc1cc(C(=O)N2CCc3c(Cl)cccc3C2)no1 | 3934 | 3 | 2 | 6 | -7 | 6 | 5.2
O=C(Cc1ccccc1Cl)NNC(=O)Nc1ccccc1 | 9349 | -13 | 9 | 5 | -9 | 0 | 4.7
CCOc1ccc(N(C)C(=O)CCc2nnc3ccc(N4CCCCC4)nn23)cc1 | 5255 | -2 | -11 | -7 | -4 | -9 | -0.1

Screening data: PubChem, several laboratories
